D2 ag = Beta-Arrestin HTS for Positive Allosteric Modulators of the Human D2 Dopamine Receptor: Agonists; DiscoveRx PathHunter D2 beta-arrestin, luminescence, 90 min; 100% = 57 uM dopamine signal; activation, % (no concentration beside the values); AID 624465, 2012; 360,000 compounds, 0.084% hits; D(2) dopamine receptor (Homo sapiens), P14416; in the data active = activation above about 40%; inconclusive = about 15% to 40%; inactive = below about 15%; note: compound concentration not given in the record; the text of the record calls up to 30% inactive
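Agonist mode: compounds alone added to overnight-plated D2 PathHunter cells for 90 min at 37 C, with 57 uM final dopamine (EC100) defining full response. Beta-arrestin recruitment detected by chemiluminescent reagent, read after 1 h at ambient temperature.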
D2 potentiator = Beta-Arrestin HTS for Positive Allosteric Modulators of the Human D2 Dopamine Receptor: Potentiators; D(2) dopamine receptor (Homo sapiens), P14416; DiscoveRx D2 beta-arrestin cells, luminescence, 90 min; 100% = 57 uM dopamine signal; potentiation, % (test concentration not listed); 360,000 compounds, 0.23% hits; AID 624464, 2012; active = potentiation of 50% or more; inconclusive = 30% to 50%; inactive = 30% or less;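 note: compound concentration not given in the record; tested on top of an EC20 dose of dopamine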
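D2 cells co-treated with compound plus 50 nM dopamine (EC20) for 90 min at 37 deg C to detect potentiation. Beta-arrestin recruitment was read as enzyme-fragment luminescence after 1 h at ambient temperature. Full response was set by 57 uM dopamine.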
gsp agonist = qHTS for Agonist of gsp, the Etiologic Mutation Responsible for Fibrous Dysplasia/McCune-Albright Syndrome: qHTS. gsp mutant cells, cAMP HTRF, 30 min; control for the full effect not named in the record. Potency, µM (highest dose often 76.9 µM), without a hit: at the highest dose activation (cAMP increase), actives largely listed as activators. 340,000 compounds, 0.13% hits; active = well fitted activation curve with a large enough effect; inconclusive = small, poorly fitted or top-dose-only effect, or another doubt; inactive = no such curve, though single readings can be large or run the other way; cell line not stated here;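 note: phosphodiesterase inhibitor Ro 20-1724 added with compounds to block cAMP breakdown; potency is the fitted concentration of half-maximal effect; nearly all actives have a fitted effect of over 60% in size; about a fifth of the inactives were tested at one dose only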
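Cells stably selected in G418 were plated at 2000/well, grown 16-24 hr, then given compounds in DMSO with the PDE inhibitor […] (300 uM solution added) for 30 min at 37C; cAMP was read by HTRF.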
Six1-Eya2 inh = qHTS Assay for Inhibitors of the Six1/Eya2 Interaction; 360,000 compounds, 0.56% hits; AlphaScreen GST-Six1/His-Eya2 binding, biochemical; stronger effect = lower value; control for the full effect not named in the record; activity change, % (test concentration not listed); Homeobox protein SIX1 (Homo sapiens) + Protein phosphatase EYA2 (Homo sapiens), …; in the data active = activity change below about -65%; inconclusive = about -30% to -65%; inactive = above about -30%; note: % is set by controls: 0 for no effect and ±100 for the full control effect
Target sequence (O00167 whole entry, looked up): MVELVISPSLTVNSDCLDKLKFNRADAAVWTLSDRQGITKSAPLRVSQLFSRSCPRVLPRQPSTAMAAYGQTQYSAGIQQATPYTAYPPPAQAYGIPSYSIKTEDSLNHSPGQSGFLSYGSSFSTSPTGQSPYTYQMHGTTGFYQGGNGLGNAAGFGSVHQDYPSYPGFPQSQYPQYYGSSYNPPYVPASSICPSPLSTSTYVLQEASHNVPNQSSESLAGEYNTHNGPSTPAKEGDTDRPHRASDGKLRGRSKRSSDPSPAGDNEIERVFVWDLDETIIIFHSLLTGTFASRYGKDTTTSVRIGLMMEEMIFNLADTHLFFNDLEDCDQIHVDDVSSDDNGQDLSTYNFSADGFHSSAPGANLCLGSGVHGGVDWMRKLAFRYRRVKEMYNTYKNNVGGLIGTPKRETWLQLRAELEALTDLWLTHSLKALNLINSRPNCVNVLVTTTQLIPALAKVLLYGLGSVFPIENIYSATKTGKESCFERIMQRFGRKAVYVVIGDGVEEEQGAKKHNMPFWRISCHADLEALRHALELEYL
Target sequence (Q15475 whole entry, looked up): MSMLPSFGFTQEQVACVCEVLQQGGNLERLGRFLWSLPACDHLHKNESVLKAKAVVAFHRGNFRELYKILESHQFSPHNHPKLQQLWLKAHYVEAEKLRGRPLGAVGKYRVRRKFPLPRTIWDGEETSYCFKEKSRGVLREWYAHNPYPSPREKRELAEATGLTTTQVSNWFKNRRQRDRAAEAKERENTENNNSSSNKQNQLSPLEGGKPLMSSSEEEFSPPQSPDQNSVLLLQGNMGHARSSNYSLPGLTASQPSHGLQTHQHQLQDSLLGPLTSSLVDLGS
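Homogeneous AlphaScreen proximity assay pairing GST-Six1 with His-tagged Eya2 (added as 5X mix: 250 nM and 500 nM) in 50 mM Tris pH 8.0, 300 mM NaCl, 1 mM TCEP. Glutathione donor and nickel acceptor beads; 1 h, 37 °C, dark.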
CtBP-E1A blk = qHTS Assay for Inhibitors of the CtBP/E1A Interaction. AlphaScreen GST-E1A/His-CtBP binding, 1536-well; stronger effect = lower value; control for the full effect not named in the record. activity change, % (concentration not given with the values). 340,000 compounds, 0.49% hits. CtBP / adenovirus E1A interaction (AlphaScreen). AID 651724, 2012; in the data active means activity change below about -65%; inconclusive means about -30% to -65%; inactive means above about -30%; note: % is set by controls: 0 for no effect and ±100 for the full control effect
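Homogeneous bead-based format: GST-tagged E1A captured on glutathione donor beads, His-tagged CtBP on nickel acceptor beads; compounds precede bead addition by 2 h at 37 °C.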
gsp antagonist = qHTS for Antagonists of gsp, the Etiologic Mutation Responsible for Fibrous Dysplasia/McCune-Albright Syndrome: qHTS; gsp-mutant cells, cAMP HTRF, 30 min; control for the full effect not named in the record; Potency, µM (series often up to 76.9 µM), without a hit: at the highest dose activity change, negative = inhibition, usual class: inhibitors; 340,000 compounds, 0.4% hits; active = falling curve of any shape with a large fitted effect; inconclusive = falling curve, mostly with a smaller effect; inactive = flat or rising curve; cell line not stated here;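 note: intracellular cAMP measured with PDE inhibitor Ro 20-1724 present during compound exposure; potency is the fitted concentration of half-maximal effect; % is set by controls: 0 for no effect and ±100 for the full control effect; nearly all actives have a fitted effect of over 65% in size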
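Cells in G418 medium, seeded 16-24 h, 37C; buffer exchange to DPBS + 1 mM CaCl2, 0.5 mM MgCl2, 0.05% BSA; cpds in DMSO + […] (300 uM stock), 30 min 37C; HTRF cAMP detection.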
* = called active by the depositor; ? = inconclusive; nt = not tested or not shown; [ ] = remark or other dose.

SMILES	D2 ag	D2 potentiator	gsp agonist	Six1-Eya2 inh	CtBP-E1A blk	gsp antagonist
CCOc1ccccc1NC(=O)CC1Nc2ccccc2NC1=O (stereo not drawn)	3.0	8.5	-38.4%[inhibitor]	?	?	5.1%
Cn1ncc(C#N)c1NC(=O)C1CC(c2ccccc2Cl)=NO1 (stereo not drawn)	-0.5	-2.4	-7.9%	0.0	1.4	-14.4%
COc1ccc(CNC(=O)CN(C(=O)c2ccc(CN3CCOCC3)o2)C2CCCC2)cc1	-0.6	-0.4	?	0.1	15.4	-9.1%
CC1NC(=O)c2cccnc2-n2c1nc1ccccc1c2=O (stereo not drawn)	-2.3	nt	?	1.0	-20.1	nt
O=C(NC1CCCCC1)c1ccc(S(=O)(=O)N2CCCC2)cc1	1.3	-6.0	-10.7%	4.2	6.5	12.4%
O=C(C1CCC(=O)N(C2CC2)C1)N(CCO)Cc1ccccc1 (stereo not drawn)	-2.3	-4.7	-8.4%	1.9	9.4	9.1%
COCCN(C(=O)Cc1cccs1)C(C(=O)NC1CCCC1)c1cc(OC)c(OC)c(OC)c1 (stereo not drawn)	-3.2	-5.0	-25.8%[15.4 µM]	-0.3	-6.9	3.3%
CC(=O)C1=C(O)C(=O)N(c2nnn(C)n2)C1c1cccs1 (stereo not drawn)	-1.8	0.6	-1.8%	1.4	5.2	13.9%
O=C(Nc1ccccc1)SC1CCCCC1	3.5	0.7	16.9%	16.4	10.0	3.7%
Cc1cccc(C)c1OCc1cc(C(=O)N(C)Cc2nc3ccccc3[nH]2)no1	-2.0	-13.0	-0.6%	-0.8	6.6	?
Cc1ccc(S(=O)(=O)N2CCC(C(=O)OCC(=O)N(Cc3ccccc3)C(C)C)CC2)cc1C	1.6	-3.0	-36.7%[inhibitor]	4.2	3.1	nt
C[C@H]1CN([C@@H](C)CO)C(=O)CCCn2nncc2CO[C@H]1CN(C)C(=O)Nc1ccnc(N2CCOCC2)c1	-2.9	2.0	-96.2%[inhibitor]	3.7	5.9	nt
Cc1cc(Br)ccc1OCCCCNC(C)(C)C	-1.9	-31.0	2.6%	-0.9	5.1	13.6%
O=c1[nH]c(SCc2cccc(Cl)c2)nc2[nH]ncc12	-2.8	-1.3	-35.3%[inhibitor]	-1.1	-5.7	6.0%
C/C(=N\NC(=O)CSc1nnc(C)s1)c1ccc(O)cc1	-6.7	-11.2	-14.6%	3.2	0.2	8.1%

The list goes on; the last two above are carried over.
SMILES	D2 ag	D2 potentiator	gsp agonist	Six1-Eya2 inh	CtBP-E1A blk	gsp antagonist
O=c1[nH]c(SCc2cccc(Cl)c2)nc2[nH]ncc12	-2.8	-1.3	-35.3%[inhibitor]	-1.1	-5.7	6.0%
C/C(=N\NC(=O)CSc1nnc(C)s1)c1ccc(O)cc1	-6.7	-11.2	-14.6%	3.2	0.2	8.1%
O=C(NCCc1ccccc1)c1nc(-c2cccs2)no1	-4.6	-8.5	-0.2%[15.4 µM]	12.1	-12.3	6.2%
Cc1ccc(-n2cc(CNCCc3cscn3)c(-c3ccc(F)cc3)n2)cc1	-5.2	-13.4	10.7%	-16.4	0.0	-2.2%
Cc1ccc(-n2cc3ccc([N+](=O)[O-])cc3n2)cc1	4.5	7.9	1.2%	-5.8	-0.6	-4.4%
CS(=O)(=O)N1CCSC1c1ccc(Br)cc1 (stereo not drawn)	-3.1	-5.0	?	5.7	3.6	16.5%
COc1ccc(NC(=O)CN(C)Cc2c(F)cccc2Cl)cc1S(=O)(=O)N1CCCCC1	-4.8	1.3	-0.5%[15.4 µM]	6.0	-6.2	-2.5%
COc1ccc(CCNC(=O)C2CCCN(S(=O)(=O)c3cnc[nH]3)C2)cc1OC (stereo not drawn)	-4.8	-8.5	9.5%	-1.3	0.2	7.9%
Cc1ccc(OCC(=O)Nc2ccc3c(c2)OCO3)cc1C	3.2	0.0	-18.5%	11.0	nt	-10.5%
CC(C)N(C)C1=CC(=O)C(N(C)C(C)C)=CC1=O	-1.6	17.6	-77.0%[inhibitor]	-24.0	11.1	?
Cc1ccccc1-n1c(=O)cc(NCC2CCCO2)[nH]c1=O (stereo not drawn)	-0.1	6.5	-25.5%	-5.1	-8.3	2.9%
CCOC(=O)c1c(-c2ccc(C)cc2)csc1NC(=O)C1CC=CCC1C(=O)O (stereo not drawn)	3.4	-4.2	-22.9%	13.3	10.3	-10.7%
O=C1CSC2(CCCCC2)N1CCO	-3.5	-3.3	-20.9%	2.7	2.3	7.0%
Cc1ccc(/C=C2/Sc3ccc(C(=O)N4CCN(C)CC4)cc3NC2=O)cc1	-1.3	-19.4	15.2%	1.6	-7.3	-14.0%
CCCCN(C(=O)CSc1nnc2ccccn12)c1c(N)n(Cc2ccccc2)c(=O)[nH]c1=O	0.1	-1.4	0.3%[15.4 µM]	3.9	-1.0	5.2%
CCCCOC(=O)Cn1c(=O)c2c(nc(Br)n2Cc2ccccc2)n(C)c1=O	-2.9	-25.5	-3.8%	-1.5	-1.4	-3.0%
Cc1cc(NC(=O)c2ccc(NC(=O)C3CCCO3)cc2)ccc1Br (stereo not drawn)	-0.4	-5.6	27.4%	-0.4	nt	-8.9%

Quoted from the listing:
For gsp agonist, `CCCCN(C(=O)CSc1nnc2ccccn12)c1c(N)n(Cc2ccccc2)c(=O)[nH]c1=O` shows 0.3%[15.4 µM]
For D2 potentiator, `CCCCOC(=O)Cn1c(=O)c2c(nc(Br)n2Cc2ccccc2)n(C)c1=O` shows -25.5
For Six1-Eya2 inh, `Cc1ccc(/C=C2/Sc3ccc(C(=O)N4CCN(C)CC4)cc3NC2=O)cc1` shows 1.6
For gsp antagonist, `Cc1ccc(-n2cc(CNCCc3cscn3)c(-c3ccc(F)cc3)n2)cc1` shows -2.2%
For CtBP-E1A blk, `O=C1CSC2(CCCCC2)N1CCO` shows 2.3

The list continues:
SMILES	D2 ag	D2 potentiator	gsp agonist	Six1-Eya2 inh	CtBP-E1A blk	gsp antagonist
CC(C)CCn1c(=O)c2ccccc2n2c(CN3CCOCC3)nnc12	-0.2	-2.7	-13.8%	0.2	4.7	-0.2%
O=C(c1cc(Cl)ccc1Cl)N1CCN(c2ccccn2)CC1	2.1	1.2	27.8%	5.8	-12.7	-5.2%
CC(C)Cc1nnc(NC(=O)c2ccc3c(c2)NC(=O)C(C)S3)s1 (stereo not drawn)	-4.5	-14.6	21.1%[15.4 µM]	-0.5	6.6	8.8%
COCCN(C(=O)CSc1n[nH]c(-c2ccccc2)n1)c1c(N)n(Cc2ccccc2)c(=O)[nH]c1=O	-4.5	-18.1	?	4.5	9.7	5.2%
COc1ccccc1N(CC(=O)NC(C)C)S(=O)(=O)c1cccs1	-1.7	-4.7	?	-3.4	4.1	8.2%
Cc1ccc(C(C)(C)NC(=O)C2CCC(=O)N(CCCN3CCOCC3)C2)cc1 (stereo not drawn)	-1.7	2.4	?	5.0	0.5	6.9%
Cc1noc(N)c1C1(O)C(=O)N(C(C)C)c2ccccc21 (stereo not drawn)	2.2	-1.3	-22.4%	5.4	7.2	11.0%
Cc1ccc(-c2csc(N(Cc3ccco3)C(=O)c3cccs3)n2)cc1	-8.0	-6.9	-31.9%[inhibitor]	-3.1	3.8	-27.1%
COc1ccc(C(OCC(O)CN2CCC(O)CC2)c2ccc(OC)cc2)cc1 (stereo not drawn)	-1.6	-9.9	13.2%[15.4 µM]	1.2	24.3	-7.9%
CC(=O)c1ccc(NC(=O)c2sc3nc(C)c(C)c(C)c3c2N)cc1	6.0	-4.8	16.5%[15.4 µM]	6.6	-3.7	-5.2%
[N-]=[N+]=CC(=O)CNC(=O)[C@@H](Cc1ccccc1)N1C(=O)c2ccccc2C1=O	-3.9	15.4	?	0.2	6.4	1.5%
CC(C(=O)Nc1ccc(S(=O)(=O)N2CCCC2)cc1)N1CCc2ccccc2C1 (stereo not drawn)	9.9	-12.2	0.5%	-22.2	nt	-12.2%
COCc1cc(=O)oc2cc(NC(=O)c3ccc(C(C)(C)C)cc3)ccc12	-1.0	-6.1	-8.4%[15.4 µM]	1.5	1.6	9.1%
CCC(=O)N1CCc2cc(S(=O)(=O)NCCC(=O)NC3CCCCCC3)ccc21	-0.6	-8.4	1.4%	0.6	0.5	-21.0%
CCCCCCN1N=C(C)C(C(=O)c2ccc(Cl)cc2)C1=O (stereo not drawn)	-2.8	-2.9	10.1%	-1.4	5.8	-16.2%
CCCOc1ccc(OCCOCCNCc2ccccc2)cc1	0.5	-11.3	5.2%	-5.0	-3.6	-10.2%
CN1CCN(C(=O)CSc2cc(=O)n(C)c3ccccc23)CC1	-3.3	-3.2	13.8%	-0.7	2.2	11.6%
CCC(=O)c1cc2c(C)cc(=O)oc2c(C)c1OC	0.3	-8.4	-0.6%	-15.8	-21.2	14.1%
O=C(Nc1cc(=O)[nH]c2nc(-c3ccc(Cl)cc3)nn12)c1ccccc1	0.8	-1.2	0.1%[15.4 µM]	5.9	5.5	-17.2%
CC1=C(C(=O)N(C(C)C)C(C)C)CC(CC(=O)NC2CC2)C(=O)N1Cc1ccc(F)cc1 (stereo not drawn)	-2.6	-3.4	nt	5.3	0.1	nt
Cc1nc2ccc(NC(=O)c3c(-c4ccccc4)noc3C)cc2s1	0.2	0.9	0.6%	-1.3	0.8	-5.0%
CCOC(=O)c1cc(C#N)c(N2CCCC2)nc1-c1ccccc1	-2.7	4.5	15.1%	91.7	67.3	-1.2%
CCOC(=O)C1=C(O)CSC1=Nc1ccc(Cl)cc1	0.4	-17.1	19.4%	-3.8	-14.4	3.8%
c1ccc(CCCc2nc(-c3cccnc3)no2)cc1	6.1	-4.3	-64.3%[inhibitor]	5.8	12.9	7.8%
CCOC(=O)C1CCN(C(=O)Cc2cccc3ccccc23)CC1	-3.4	-1.9	-22.3%	-1.5	1.0	-6.0%
CCN(C(=O)COC(=O)c1cc(=O)[nH]c2ccccc12)C1CCS(=O)(=O)C1 (stereo not drawn)	2.9	-2.6	5.5%	3.4	-16.0	14.1%
O=C(O)c1ccc2c(c1)C(=O)N(c1cccc(-c3nc4ccccc4s3)c1)C2=O	-1.8	1.1	?	-5.3	-10.2	-2.5%
CC(=O)[C@@]1(O)CC[C@H]2[C@@H]3C[C@H](C)C4=CC(=O)CC[C@]4(C)[C@H]3CC[C@@]21C	-0.5	5.7	nt	4.3	-21.1	-8.2%
COc1cc(OC)cc(-c2noc(-c3csc([C@@H]4C[C@H](O)[C@@H](CO)O4)n3)n2)c1	2.2	7.7	nt	-5.2	0.1	nt
Oc1ccc(-c2csc(Nc3ncccn3)n2)c(O)c1	-4.0	2.9	-8.6%[15.4 µM]	-6.8	-0.8	4.0%

Assay outcomes deposited in PubChem by National Center for Advancing Translational Sciences (NCATS).
